HCMV NEC inh – cytomegalovirus nuclear egress complex inhibition. HTRF UL50-UL53 interaction, normalized percent inhibition. inhibition, % (no concentration beside the values). hit rate 0.15% among 190,000;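 active = both replicates at 50% or more, plus weaker picks with an unusually low signal ratio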;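 also: stock transfer was 100 nL into about 20 µL; 0% = negative control wells and 100% = wells with untagged competitor protein; inactives centre near -12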
GIV-Gai inh – GIV-Galpha-i interaction inhibition; AID 1224905; hit rate 0.42% among 210,000; Galpha-i3/FITC-GIV peptide fluorescence polarization, 90 min; stronger effect = lower value; scaled: aluminum fluoride 0%, vehicle 100%; P08753; percent of control (FP), % (test concentration not listed);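 active = replicate mean at 85% of control or lower, very high polarization wells dropped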;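 also: wells of about 15 µL received 100 nL stock; the first replicate is given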
Target sequence (P08753 whole entry, looked up): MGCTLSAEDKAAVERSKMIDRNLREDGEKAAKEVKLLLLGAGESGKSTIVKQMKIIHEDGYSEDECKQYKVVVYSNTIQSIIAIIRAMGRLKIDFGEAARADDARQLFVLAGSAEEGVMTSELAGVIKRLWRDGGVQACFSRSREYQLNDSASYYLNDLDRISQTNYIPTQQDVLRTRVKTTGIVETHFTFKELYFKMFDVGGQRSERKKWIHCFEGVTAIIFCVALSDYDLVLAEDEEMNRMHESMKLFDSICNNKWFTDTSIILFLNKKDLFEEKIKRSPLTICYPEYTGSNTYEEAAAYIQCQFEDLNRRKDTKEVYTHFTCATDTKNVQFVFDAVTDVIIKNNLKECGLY
Sa growth 42C – blocks Staphylococcus aureus growth; hit rate 0.53% among 170,000; AID 720641; relative growth, % (no concentration beside the values); S. aureus RN4220 growth, OD600, 20 h, 42 °C; stronger effect = lower value;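 active = growth at 42 °C up to 50% and 20 or more points under that at 30 °C, or under 10% at both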;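 also: 300 nL library stock went into each well; scaled to the means of positive and negative controls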
Sa growth 42C second temp – recorded beside Sa growth 42C, whose call it bears; relative growth, %; measured here: growth at 30 °C;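 optical density after 20 h as mean of two plates; 100% = untreated growth and lower means inhibition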
Starred values were filed as active, the others as inactive; / = not tested or not shown; & = joins results of further samples.

SMILES	HCMV NEC inh	GIV-Gai inh	Sa growth 42C	Sa growth 42C second temp
COc1ccc(C2NC(C(=O)O)Cc3[nH]cnc32)cc1 (stereo unspecified)	-18	102	92	93
N#Cc1c(N)sc2c1-c1ccccc1CC2	-38	104	65	47
CCc1ccc(CSc2nc(-c3ccccc3OC)nc3c2Cc2c(CO)cnc(C)c2O3)cc1	/	110	100	88
COc1ccccc1C(=O)NCC(c1ccc(N(C)C)cc1)N1CCc2ccccc21 (stereo unspecified)	/	101	90	66
O=C(NCC(c1ccco1)S(=O)(=O)c1ccc(Cl)cc1)c1ccc2c(c1)OCO2 (stereo unspecified)	-38	95	97	80
Clc1ccc(-c2nnn3c2nc(N2CCCCC2)c2ccccc23)cc1	-22	104	106	89
Cc1cccc2c1cnn2C(=O)CCC(=O)N1CCN(C2CCCCC2)CC1	-16	103	/	/
CCOC(=O)CSc1nn(C)c(=S)s1	-8	112	70	81
Cc1ccc(C)c(N2CCN(S(=O)(=O)c3ccc(-c4cnc(C5CC5)o4)cc3)CC2)c1	/	103	97	87
O=Nc1c(-c2c(O)[nH]c3cc(Br)ccc23)[nH]c2ccccc12	-25&-6&-4&-5&-5&-13&-9&-12&-21&-22	104	/	/
O=C(Nc1cnc2ccccc2c1)N1CCOCC1	-37	97	81	83
COc1cc(OC)cc(C(=O)OC(C)C(=O)Nc2ccc(C(N)=O)cc2)c1 (stereo unspecified)	13	/	98	100
CCSc1nc(=O)n(Cc2ccco2)c2c1CCC2	-10	109	/	/
C=C(C)Cn1c(C2CC(=O)N(Cc3ccc(F)cc3)C2)nc2ccccc21 (stereo unspecified)	-21	103	/	/
CCOC(=O)c1cnn2c(C)c(Cc3ccccc3)c(C)nc12	-34	108	/	/
O=C(CN1C(=O)NC(Cc2ccccc2)C1=O)c1ccc(S(=O)(=O)N2CCCC2)cc1 (stereo unspecified)	-14	/	75	95
COc1ccc(-n2c(SCc3ccccc3F)nc3c([nH]c4ccccc43)c2=O)cc1OC	/	102	102	85
Cc1nc(C)c(-c2nc(-c3ccc4c(c3)[nH]c(=O)n4C)no2)s1	-21	103	/	/
C/C(=N\NC(=O)c1cc2ccccc2cc1O)c1ccc(N)cc1	-46	118	169	50
CNc1cncc(C(=O)O)c1	-49	103	98	90
O=C(Nc1ccccn1)c1ccc(Br)o1	-8	/	96	81
CSc1nn(-c2ccccc2)cc1C(=O)N1CCCC1	11	99	101	93
Cc1ccc(C)c(N2CCN(C(=O)NCc3noc4ccccc34)CC2)c1	/	100	97	86
Cc1cc(C(=O)COC(=O)CCc2nc3ccccc3c(=O)[nH]2)c(C)n1C	-19	/	96	59
Cc1cc(NNS(=O)(=O)c2ccc(OC(F)(F)F)cc2)n2ncnc2n1	-14	/	83	79
O=C(NCCO)c1cc2ccccc2oc1=O	/	103	117	91
COCCn1c(=N)c(C(=O)NC2CCCC2)cc2c(=O)n3cc(C)ccc3nc21	-67	108	112	95
CC(C)c1nc2sc3c(ncn4ncnc34)c2c2c1CCCC2	2	96	99	97
CC1CCN(S(=O)(=O)c2cc(C(=O)NCc3ccc(Br)cc3)n(C)c2)CC1	-13	108	/	/
Cc1nn(C2CCS(=O)(=O)C2)c(Cl)c1/C=C1\SC(=S)NC1=O (stereo unspecified)	-45	/	76	95
COc1cc(C(=O)NCC(c2cccnc2)N2CCc3ccccc3C2)cc(OC)c1OC (stereo unspecified)	-20	106	83	82
CC(=O)N/N=C(/C)c1ccccc1	1	96	107	98
COC(=O)c1ccc(/C=N/c2c(-c3ccco3)nc3ccccn23)cc1	-36	104	85	72
CN(C)c1nc2c(c(=O)n(C)c(=O)n2C)n1CC(=O)c1ccccc1	0	/	104	94
COc1ccc(N(Cc2cc3cc(OC)ccc3[nH]c2=O)S(C)(=O)=O)cc1	-27	101	/	/
Cc1ccc(C)c(Cn2c(=O)n(Cc3ccccc3)c(=O)c3sc4ccccc4c32)c1	-7	103	111	85
C(/C=C/c1ccco1)=NN1CCN(C2c3ccccc3-c3ccccc32)CC1	3	102	108	90
Cc1c[nH]c2cccc(OCC(O)CN3CCN(C(c4ccccc4)c4ccccc4)CC3)c12 (stereo unspecified)	-9	/	106	62
Cc1cc(C(=O)N2CCN(C3CCCCC3)CC2)c2cc(Br)ccc2n1	-40	111	/	/
Cc1ccc(NCCOc2ccccc2)c(C)c1	11	97	98	113
CCN(CC)C1=NC(=O)C(CC(=O)Nc2cccc(C(=O)NCc3ccco3)c2)S1 (stereo unspecified)	-36	/	67	89
CCOC(=O)C(N)C(O)c1ccccc1 (stereo unspecified)	-16	103	100	76
COCCNC(=O)c1ccc2c(c1)C(=O)N(C)C2=O	-82	105	101	93
O=C(c1ccccc1)c1cnc2ccccn2c1=O	-50	103	95	88
CCC(C)NC(=O)C1CCN(S(=O)(=O)N2CCC3(CC2)OCCO3)CC1 (stereo unspecified)	13	94	105	105
COc1ccc(NCc2cccn2-c2nnc(N3CCN(c4ccccc4)CC3)s2)c(OC)c1	-11	101	/	/
CC(C)CN(CC(C)C)c1ncc(NS(=O)(=O)c2ccc(Br)cc2)cc1C(=O)O	-27	123	/	/
COC(=O)CSc1nnc2n1C(C)(C)Cc1ccccc1-2	21	102	101	112
Cc1ccc(-n2c(=O)oc3ccc(Cl)cc3c2=O)cc1Cl	/	102	17	15
COc1ccccc1NC(=O)CN(Cc1ccco1)C(=S)NCc1ccccc1	-13	/	108	64
Carrying on.
SMILES	HCMV NEC inh	GIV-Gai inh	Sa growth 42C	Sa growth 42C second temp
COc1ccc(-c2nc3scc(CCNS(=O)(=O)c4ccc(Oc5ccccc5)cc4)n3n2)cc1	/	100	114	91
FC(F)(F)c1nc(Cl)c2ccccc2n1	7	/	95	96
COC(=O)c1cccc(NC2=NS(=O)(=O)c3ccccc32)c1	/	107	136	91
O=C(CCn1c(=O)c2ccccc2n2c(=O)[nH]nc12)NC1CCCCC1	-31	102	/	/
Cc1ccc(-c2nc(SCC(=O)NCC3CCCO3)c3c(=O)n(C)c(=O)n(C)c3n2)cc1 (stereo unspecified)	/	99&102	94	88
CCN1c2ccccc2-c2nc3ccccc3n2C1c1ccsc1 (stereo unspecified)	-5	102	82	65
Cc1cccc(C(=O)NCc2nc(-c3ccccc3Cl)no2)c1	-15	105	80	84
O=C(c1cc(-c2ccc(Cl)c(Cl)c2)nc2ccccc12)N1CCOCC1	-17	101	/	/
CCc1ccn2cc(-c3ccc(-c4ccccn4)s3)nc2c1	-63	107	86	47
O=C(NC1CCCC1)C1CCCN(S(=O)(=O)c2ccc3[nH]c(=O)ccc3c2)C1 (stereo unspecified)	21	106	92	110
CCCOc1ccc(CNC(=O)c2ccc(-n3c(C)cc4c3CCC(C)C4)cc2)cc1 (stereo unspecified)	/	107	89	105
CC(C)n1c(SCC(=O)N(Cc2ccccc2)C(C)(C)C)nc2c1c(=O)n(C)c(=O)n2C	-16	100	118	91
O=C1CC(c2ccccc2)CC(O)=C1C=NCc1cccnc1 (stereo unspecified)	-7	96	94	105
COc1cccc(-n2cc(C(=O)NCc3cccc(Cl)c3)c3ccccc3c2=O)c1	/	103	116	110
COc1ccc(/C=C/C(=O)N2c3ccccc3COC2c2ccccc2)cc1 (stereo unspecified)	/	101	119	90
O=C1OCc2cc(-n3cnnn3)ccc21	-6	/	80	66
COc1ccc(NS(=O)(=O)c2cnc(N)nc2)cc1Cl	/	112	109	89
CC1=C(C(=O)Nc2ccccc2C(=O)NCc2ccc3c(c2)OCO3)SCCO1	-2	113	98	94
COC(=O)c1cc(Cl)ccc1NC(=O)Cn1c(=O)nc(-c2ccccc2F)c2cc(Cl)ccc21	-4	108	/	/
CCN(CC)CCn1c(NCc2ccc(C)o2)nc2ccccc21	6	/	91	94
COc1ccc(-c2noc(=O)n2CCCC#N)cc1OC	1	108	86	81
CC(C)Nc1nn(CN2CCN(C(=O)c3ccccc3)CC2)c(=S)s1	-49	/	94	79
C/C=C/c1c(C)nc2sc(C#N)c(N)c2c1C	-60	/	97	90
CCCCN(C)C(=O)Cn1cnc2sc(C)c(S(=O)(=O)N3CCC(C)CC3)c2c1=O	-23	102	98	86
CCOC(=O)c1cnc2ccc(C)cc2c1NCCO	7	108	92	98
NC(=O)COC(=O)c1cc(Cl)cc(Cl)c1	-14	/	92	87
COc1ccccc1NC(=O)COC(=O)c1nnn(-c2ccc(C)c(Cl)c2)c1C	-21	107	/	/
O=C(CSc1nc2c(c(=O)[nH]1)CCCC2)Nc1ccccc1C(F)(F)F	-17	103	95	89
CCCN1C(=O)c2[nH]nc(-c3ccccc3O)c2C1c1ccc(OCc2ccccc2)c(OC)c1 (stereo unspecified)	-8	103	83	69
CCN1/C(=C/c2scc[n+]2C)C=C(C)c2cc(OC)c3ccccc3c21	/	241	-1.3*	-1.1*

No new results follow: six of the compounds above.
SMILES	HCMV NEC inh	GIV-Gai inh	Sa growth 42C	Sa growth 42C second temp
COc1ccc(-c2noc(=O)n2CCCC#N)cc1OC	1	108	86	81
CC(C)Nc1nn(CN2CCN(C(=O)c3ccccc3)CC2)c(=S)s1	-49	/	94	79
C/C=C/c1c(C)nc2sc(C#N)c(N)c2c1C	-60	/	97	90
CCCCN(C)C(=O)Cn1cnc2sc(C)c(S(=O)(=O)N3CCC(C)CC3)c2c1=O	-23	102	98	86
CCOC(=O)c1cnc2ccc(C)cc2c1NCCO	7	108	92	98
NC(=O)COC(=O)c1cc(Cl)cc(Cl)c1	-14	/	92	87

Next part
SMILES	HCMV NEC inh	GIV-Gai inh	Sa growth 42C	Sa growth 42C second temp
NCC1CCC(C(=O)Oc2ccc(CCC(=O)O)cc2)CC1 (stereo unspecified)	-21	/	94	97
CC(C)(C)SCC(=O)NCc1ccc(S(N)(=O)=O)cc1	-23	/	80	96
CN(C)CCCNC(=O)C(=O)NCC(c1ccc2c(c1)OCO2)N1CCOCC1 (stereo unspecified)	/	105	109	99
CCC(=O)N1CC23C=CC(CC2CC12CCCCC2)O3 (stereo unspecified)	-12	98	91	85
O=C(/C=C/S(=O)(=O)c1ccc(Cl)cc1)c1ccc(F)cc1	-41	107	93	79
CCC(C(=O)N1CCCC1)N1C(=O)CCCc2ccccc21 (stereo unspecified)	-8	106	/	/
Cc1ccc(S(=O)(=O)NCC2CCC(C(=O)NCCc3ccc(Cl)cc3)CC2)cc1 (stereo unspecified)	/	102	121	91
COC(=O)c1scc(-c2ccc(C)cc2)c1S(=O)(=O)Nc1cccc(Cl)c1C	/	104	94	95
COc1ccc(Cl)cc1N(CC(=O)N1CCN(c2ccccc2)CC1)S(=O)(=O)c1ccc(C)c([N+](=O)[O-])c1	-6	104	/	/
CCCn1c(=O)n(C)c(=O)c2c(SC(C)c3nc4ccccc4c(=O)[nH]3)nc(C(C)(C)C)nc21 (stereo unspecified)	-10	/	87	87

Entries above with a cyano group (3):
SMILES	HCMV NEC inh	GIV-Gai inh	Sa growth 42C	Sa growth 42C second temp
N#Cc1c(N)sc2c1-c1ccccc1CC2	-38	104	65	47
COc1ccc(-c2noc(=O)n2CCCC#N)cc1OC	1	108	86	81
C/C=C/c1c(C)nc2sc(C#N)c(N)c2c1C	-60	/	97	90

Later entries
SMILES	HCMV NEC inh	GIV-Gai inh	Sa growth 42C	Sa growth 42C second temp
Cc1csc(Nc2ccc(F)c(Cl)c2)[n+]1C(C)C	-22&-14	99&103	91&101	90&64
COc1cccc(NC(=O)NCC(c2cccnc2)c2c[nH]c3ccccc23)c1 (stereo unspecified)	-10	98	/	/
CCN1C(=O)/C(=C2/C=CC=CN2C)N(c2ccccc2)C1=S	-110	98	87	81
O=C(NC1CCCCC1)N1CCCC(c2nc(-c3ccc(Cl)cc3)no2)C1 (stereo unspecified)	8	108	106	105
O=C(Cn1cc(/C=C2\C(=O)NC(=S)N(c3ccccc3F)C2=O)c2ccccc21)Nc1ccccc1	-11	101	/	/
CC(=O)N1CCc2c(sc3nc(SCc4ccc(C)cc4)n(CC4CCCO4)c(=O)c23)C1 (stereo unspecified)	-18	99	/	/
O=C(/C=C/C=C/c1ccccc1)c1ccc(Cl)cc1	/	102	84	83
O=C(Cc1ccc([N+](=O)[O-])cc1)N1N=C(c2cccc([N+](=O)[O-])c2)CC1(O)C(F)(F)F (stereo unspecified)	0	99	/	/
CCOc1ccc(C2CC(=O)n3nc(-c4ccc(C)cc4)nc3S2)cc1OC (stereo unspecified)	6	103	115	94
O=C(CN1C(=O)COc2ccc(Cl)cc21)Nc1cccc(CCc2nc3ccccc3[nH]2)c1	-21	103	/	/
CCCCNC(=O)Nc1ccc(Br)cn1	2	/	88	93
C=CCn1c(CCc2ccc(OC(C)C)cc2)n[nH]c1=S	-12	98	91	74
Nc1c(C(=O)NCc2ccc3c(c2)OCO3)nnn1CC(=O)Nc1ccc(Br)cc1	/	110	104	74
COc1cc2c(C#N)c(N(C)C(c3ccccc3)c3ccccc3)nc(N)c2c(N)n1	-12	/	81	92
COc1ccc(NC(=O)N2CCOc3ccc(Cl)cc32)cc1	-3	102	98	97
O=C(CSc1nnc(-c2ccc(Cl)cc2)o1)Nc1ccc(F)cc1	-4	98	104	86

High-throughput results as filed in PubChem.
